MgrA DNA FP – S. aureus MgrA-DNA binding modulation; inhibition, %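 (about 10 µg/mL by stock and volumes)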; hit rate 0.13% among 84,000; fluorescence polarization;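 active means above 50% in either of two replicates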;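 further: 0% = protein plus DNA without compound and 100% = DNA alone without protein; higher means less MgrA bound to DNA so lower polarization; one replicate is shown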
Sa helicase inh – blocks Staphylococcus aureus DNA helicase | hit rate 0.05% among 120,000 | AID 485395 | purified S. aureus helicase, fluorescence unwinding assay; about half of the hits fall short of the stated cut | inhibition, %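 (tested at about 80 µM)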;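 active means both duplicates at 50% or more, or one of them with a favoured structure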;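 further: 0% = mean of negative control wells and 100% = mean of positive control wells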
* hit, by the source's call; . = no result given. Not all compounds are listed; the hit share may differ from the screen's.

Order of values: MgrA DNA FP, Sa helicase inh
COc1cc(C2C3=C(CCCC3=O)OC3=C2C(=O)CCC3)ccc1O
→ 2.3, .
Cc1cccc(NC(=O)C2CCCN2C(=O)OCc2ccccc2)n1 (stereo not given)
→ ., 14
O=S(=O)(c1ccc(F)cc1)N1CCN=C1SCc1ccc(F)cc1
→ ., 28
CN(C)n1cccc1/C=C(\C#N)S(=O)(=O)c1cccc(Cl)c1
→ -1.7, .
COc1ccccc1C1CCN(C(=O)c2ccccc2Cl)CC1
→ -2.2, .
CC(=O)Nc1ccc2c(c1)sc(=NC(=O)c1ccco1)n2C
→ ., -3
COC(=O)CCN1C(=O)/C(=C\c2cccs2)SC1=S
→ 0.3, 4
Cc1ccc(-c2cn3c(=S)[nH]nc3s2)cc1
→ ., 13
OCc1cccnc1Sc1ccccc1
→ 0.1, .
Cc1nnsc1-c1noc(CS(=O)(=O)c2ccc(Cl)cc2)n1
→ ., -12

Next structures follow.
Order of values: MgrA DNA FP, Sa helicase inh
CC(C)NC(=O)n1ncc(S(=O)(=O)c2ccc(Cl)cc2)c1-c1ccc(Cl)cc1
→ 3.1, .
NCC1CCN(C2CCCC2)CC1
→ -0.3, -1
Cc1ccc(/C=C2/C=CC(=O)O2)o1
→ 17, -4
O=C(CCS(=O)(=O)c1ccc2[nH]c(=O)oc2c1)N1CCc2ccccc21
→ ., 15
Oc1cc(C2CCCCC2)cc(C2CCCCC2)c1
→ 3.0, 5
COc1ccc(/C=c2\sc3n(c2=O)C(c2c(OC)ccc4ccccc24)C(C(C)=O)=C(C)N=3)cc1OC (stereo not given)
→ 1.6, .
CCC(COc1nnnc2ccccc12)NC(=O)c1cnc(C)cn1 (stereo not given)
→ ., -18
COC(=O)c1ccc2c(c1)C(=O)/C(=C\c1ccccc1O)O2
→ ., 4
Cn1c(=O)oc2cc(S(=O)(=O)NCCCN3CCN(c4cccc(Cl)c4)CC3)ccc21
→ -2.1, 16
Cc1ccc(C)n1-c1ccc(C(=O)N2CCCCC2C)cc1 (stereo not given)
→ ., -4

(cont.)
Order of values: MgrA DNA FP, Sa helicase inh
CCn1c2ccccc2c2cc(N=Cc3ccc(OC(=O)c4ccco4)cc3)ccc21
→ ., -21
CCOC(=O)Cn1c(=O)c(-c2nc(-c3ccccc3)cs2)cn(C(C)C)c1=O
→ 0.1, .
CN(C)c1oc(COc2ccc(F)cc2)nc1C#N
→ 0.6, 7
O=C(Cn1c(NCCO)nc2ccccc21)N1CCOCC1
→ ., -24
COc1ccc(CC(=O)OCC(=O)Nc2ccc3c(c2)OCO3)cc1
→ ., -10
COC(=O)c1cc(N2C(=O)C3C4C=CC(O4)C3C2=O)ccc1Cl (stereo not given)
→ 0.6, .
CS(=O)(=O)Nc1cccc(C(=O)OC2CCOC2=O)c1 (stereo not given)
→ ., -8
CC(=O)NCc1ccc(C(=O)CSc2nc(C3CC3)n(-c3ccccc3)n2)s1
→ ., 10
Cc1cc(CSc2ccccc2C(=O)OCc2nc3sc4c(c3c(=O)[nH]2)CCC4)no1
→ ., -11
O=C(Nc1ccc2c(c1)nc1n2CCCCC1)c1ccc(S(=O)(=O)C(F)F)cc1
→ ., -5

(list continues)
Order of values: MgrA DNA FP, Sa helicase inh
NNC(=S)NCc1ccc2c(c1)OCO2
→ ., 11
CC(C)CCNC(=O)c1cc2ccc3cccnc3c2[nH]1
→ ., -34
Cc1c(CC(=O)N2CCOCC2)c(=O)oc2cc3occ(-c4ccc(F)cc4)c3cc12
→ ., -4
CCN(CC)c1ccc(-c2cc(C(=O)O)c3c(ccc4ccccc43)n2)cc1
→ 13, -74
O=C(CCCn1c(=O)c2cccn2c2ccccc21)N1CCc2ccccc21
→ 0.9, 0
O=C(c1cccc(Br)c1)N(Cc1cccs1)Cc1cccs1
→ ., -27
CC(Sc1n[nH]c(N)n1)C(=O)OC1CCCCC1 (stereo not given)
→ -7.0, 6
COc1ccc2oc(=O)c(/C(C)=N/O)cc2c1
→ ., -8
CCC1C(=O)CN1S(=O)(=O)c1ccc(C)cc1 (stereo not given)
→ ., 10
O=C(OCc1ccc2c(c1)OCO2)OCc1ccc2c(c1)OCO2
→ 2.3, .

Other results:
Order of values: MgrA DNA FP, Sa helicase inh
Cc1nc(=S)[nH]c(C)c1CCC(=O)N1CCN(S(=O)(=O)c2ccc(F)cc2)CC1
→ ., 30
COc1ccc(N2CCN(C(=O)c3ccccc3N(C)S(C)(=O)=O)CC2)cc1
→ -1.4, 7
COc1cc(C(=O)Nc2nnc(CC(=O)NCc3ccccc3)s2)cc(OC)c1OC
→ 2.8, .
CCCOc1ccc2oc(=O)c3c(c2c1)CCCN3C(=O)CN(CC)c1cccc(C)c1
→ ., 16
CCC(Sc1ccc2nnc(-c3ccccc3)n2n1)C(=O)OC (stereo not given)
→ 2.5, 19
O=[N+]([O-])c1ccc(C(O)CNCc2ccccc2)cc1 (stereo not given)
→ 1.4, .
O=C(NCCCc1nc2ccccc2n1CCCOc1ccccc1)c1ccco1
→ -0.2, 7
CCc1ccccc1NC(=O)c1cc(-c2cccs2)on1
→ ., 9
O=C(O)CCC(=O)Nc1nc2n(n1)C(c1ccccc1)CC(=O)N2 (stereo not given)
→ -0.2, 9
N#CC1(c2ccccc2Cl)C(=O)Nc2ccccc21 (stereo not given)
→ -6.6, 22

More records:
Order of values: MgrA DNA FP, Sa helicase inh
C=C(C)c1cccc(C(C)(C)NC(=O)Nc2ccccc2OC)c1
→ -3.5, 4
CCOC(=O)c1ccccc1NC(=O)c1sc(NC(=O)Cc2ccc(OC)cc2)c(C(=O)OCC)c1C
→ -5.5, .
CC(C)n1c(C(F)(F)F)nc2cc(C(=O)N3CCC(O)CC3)ccc21
→ -1.4, .
CN(C)CCCn1c(N)nc2ccccc21
→ ., 33
CC(NC(=O)CSc1nnc(-c2ccc(F)cc2)o1)c1ccc(Br)cc1 (stereo not given)
→ ., 12
CC(C)NC(=O)CSc1nc2ccccc2[nH]1
→ -0.8, 9
O=C(O)CN1C(=O)/C(=C2/OC(=O)c3ccccc32)SC1=S
→ ., 5
O=C1C2C(c3ccccc3)C=CC(c3ccccc3)C2C(=O)N1c1cccc(Br)c1 (stereo not given)
→ 0.8, 3
O=C(CSCc1ccccc1)Nc1ccccc1
→ ., 7
Cc1nn(CC#N)c(C)c1Br
→ -0.5, .

Brought forward from above: 2 compounds; new compounds follow.
Order of values: MgrA DNA FP, Sa helicase inh
O=C(CSCc1ccccc1)Nc1ccccc1
→ ., 7
Cc1nn(CC#N)c(C)c1Br
→ -0.5, .
O=C(CCCN1C(=O)c2cccnc2Sc2ccccc21)N1CCCC1
→ ., 6
Cc1ccc(C(=O)n2cnnc2N)cc1Cl
→ ., 10
Cc1[nH]ccc(=O)c1OCc1ccc(Cl)cc1Cl
→ 16, .
O=C(Cc1ccc(-n2cccc2)cc1)NC1CCCCCC1
→ ., 8
Cc1ccccc1NC(=O)C1C(=O)N(CCO)C2(C)CC1c1ccccc1O2 (stereo not given)
→ ., 35
CC(c1ccccc1)N1C(=O)CC(Sc2ncccc2C(=O)O)C1=O (stereo not given)
→ -1.3, 3
CCN1CCCC1CNC(=O)c1ccc2c(c1)[nH]c(=O)n2Cc1ccc(OC)cc1 (stereo not given)
→ -4.8, 19
CCCCNC(=O)c1cc2ccccc2s1
→ ., -36
CCOc1ccc(NC(=O)c2cc3c(=O)n(C)c4ccccc4c3n2C)cc1
→ -1.6, 0
CC1(C)C(=O)Nc2ccccc2N1C(=O)COc1ccc(C#N)cc1
→ ., -11

Grouped by structure: those above containing a furan ring, fused or not.
Order of values: MgrA DNA FP, Sa helicase inh
CC(=O)Nc1ccc2c(c1)sc(=NC(=O)c1ccco1)n2C
→ ., -3
Cc1ccc(/C=C2/C=CC(=O)O2)o1
→ 17, -4
CCn1c2ccccc2c2cc(N=Cc3ccc(OC(=O)c4ccco4)cc3)ccc21
→ ., -21
Cc1c(CC(=O)N2CCOCC2)c(=O)oc2cc3occ(-c4ccc(F)cc4)c3cc12
→ ., -4
O=C(NCCCc1nc2ccccc2n1CCCOc1ccccc1)c1ccco1
→ -0.2, 7

Later entries.
Order of values: MgrA DNA FP, Sa helicase inh
COc1ccc(Cl)cc1NC(=O)CSCc1cnn(-c2ccccc2)c1-n1cccc1
→ ., 19
Cc1cc(S(=O)(=O)c2cc3ccc(O)c(C)c3oc2=O)ccc1F
→ ., -49
C=CCNc1nc(N2CCCCC2)nc(N2CCCCC2)n1
→ 0.2, -2
C/C(N)=C(/C#N)C(=O)CSc1nncn1-c1ccccc1
→ ., -3
CSc1ccccc1NC(=O)CSc1ccccc1
→ -0.1, -11
COc1ccc(CNCc2cccc(OC)c2)cc1
→ 1.8, 10
COc1ccc2c(c1)C(C)=CC(C)(C)N2
→ -0.6, 6
CCC(c1nnc(SCC(=O)NC23CC4CC(CC(C4)C2)C3)o1)N(C)C (stereo not given)
→ ., -6
CCOC(=O)C(C)Sc1nnc(CNC(=O)C23CC4CC(CC(C4)C2)C3)n1-c1ccccc1 (stereo not given)
→ 3.2, 8
CCCNC(=O)c1ccc2c(c1)N(Cc1ccccc1)C(=O)c1ccccc1S2
→ 1.1, 3

Remaining list, next part
Order of values: MgrA DNA FP, Sa helicase inh
O=C(CSc1nnnn1-c1ccc(O)cc1)N1CCSC1c1ccccc1F (stereo not given)
→ ., 18
O=[N+]([O-])c1cc(C(F)(F)F)ccc1Oc1cc(C(F)(F)F)cc(C(F)(F)F)c1
→ -1.3, .
O=c1c2ccccc2c(-c2ccccc2)nn1CCc1ccccn1
→ 1.6, 3
CC(C)C(=O)OCC(=O)Nc1ccc(S(=O)(=O)N(C)C)cc1
→ ., 40
Cc1ccc(S(=O)(=O)C2(C(=O)N(C)Cc3ccccc3)CC2)cc1
→ ., 13
O/N=C1/CCSc2ccccc21
→ ., 18
CCOC(=O)c1ccc(NC(=O)CSc2ncnc3ccccc23)cc1
→ ., -12
CCOc1ccc2c(c1)OC(c1ccc(OC)cc1)(C(F)(F)F)NC2=O (stereo not given)
→ ., 2
O=C(COn1nnc2ccc(S(=O)(=O)N3CCOCC3)cc21)N1CCCc2ccccc21
→ ., 11
c1ccc(CCn2nnnc2C(c2cccnc2)N2CCCCC2)cc1 (stereo not given)
→ -1.3, 21

Next structures follow:
Order of values: MgrA DNA FP, Sa helicase inh
Cc1ccc2cc(CCNC(=O)/C=C\c3ccccc3)c(=O)[nH]c2c1
→ ., -4
CC(=O)N1c2ccccc2CC1C(=O)N1CCN(c2ccc(Cl)cc2)CC1 (stereo not given)
→ ., 19
COc1ccc(C2CC(=O)C3=C(C2)NC(C)=C(C(=O)Nc2ccc(C)cc2)C3c2ccccc2)cc1OC (stereo not given)
→ ., 9
CCCC(=O)NCc1nc2ccccc2n1Cc1cc(C)ccc1C
→ ., -22
C=CCn1c(-c2ccc(OC)cc2)c(C)sc1=Nc1ccc(C)cc1
→ 2.5, -4
COc1cc(S(=O)(=O)n2cccn2)c(OC)cc1Cl
→ -3.6, 2
CCCOc1ccc(C(=O)CCC(N)=O)cc1
→ ., -15
Cc1ccc(CN2CCN(N=Cc3ccccc3O)CC2)c(C)c1
→ 2.8, -10
Oc1ccc(/C=N\N2CCN(c3ccccc3)CC2)cc1
→ ., 17
Cc1cccc(CSC(=N)N)c1
→ ., 30

Later entries.
Order of values: MgrA DNA FP, Sa helicase inh
C=CCn1c2ccccc2c2nnc(SCC(=O)NC(C)(C)C)nc21
→ ., 3
CCCCOc1ccc(C(=O)NOCC(=O)NC2CCCCC2)cc1OC
→ ., 9
CC(C)n1c(NCCO)nc2ccccc21
→ ., -4
Cc1ccc2[nH]c(=O)c(CC3CC(c4ccccc4)=NN3C(=O)CCC(=O)O)cc2c1 (stereo not given)
→ 4.8, -2
COc1ccc(C2C(C(=O)NCc3cccnc3)c3ccccc3C(=O)N2c2ccc(OC)cc2)cc1 (stereo not given)
→ -0.9, 14
Oc1ccc(-c2nc3cc4ccccc4cc3nc2-c2ccccc2)cc1
→ -0.2, 14
COCCn1cnc2ccccc21
→ ., -1
CCOC(=O)CSc1n[nH]c(CC)n1
→ 4.3, 15
O=c1ccc(N2CCCCC2)n[nH]1
→ ., 16
O=C(CN1CCN(S(=O)(=O)c2cccc(C(F)(F)F)c2)CC1)c1ccc[nH]1
→ ., 8

Remaining list, next part:
Order of values: MgrA DNA FP, Sa helicase inh
O=C(c1cccc(C(F)(F)F)c1)N1CCCc2ccccc21
→ 1.6, 16
Cc1ccccc1NC(=O)Cn1c(=O)n(Cc2ccc(F)cc2)c(=O)c2cccnc21
→ ., -14
Cn1nc(SCC(=O)O)c(=O)n(C)c1=O
→ ., -3
COC(=O)C1=C(C)N(Cc2ccccc2)C(=O)/C1=C\c1cccc(O)c1
→ ., -22
O=C(N/N=C(\Cc1ncc[nH]1)c1ccccc1)c1ccncc1
→ ., 5
CN(C)C(=O)CS(=O)(=O)c1ccc(Cl)cc1
→ -1.6, .
CCOC(=O)CC1NCCNC1=O (stereo not given)
→ -0.7, .
C#Cc1cccc(NS(=O)(=O)c2ccc(Cl)c(Cl)c2)c1
→ 1.2, .
C=CCN(CC=C)S(=O)(=O)Cc1ccc(Cl)cc1
→ 1.5, -13
CN1C(=O)Cc2cc(S(=O)(=O)Nc3ccc(N4CCOCC4)cc3)ccc21
→ -0.9, 20

The results go on.
Order of values: MgrA DNA FP, Sa helicase inh
COc1ccc(C2C(C(=O)N3CCCC(C)C3)CCC(=O)N2c2cc(OC)c(OC)c(OC)c2)cc1 (stereo not given)
→ ., 2
Cc1cccn2cc(CNC(=O)COc3ccccc3)nc12
→ ., 4
CN(C)n1cccc1/C=C(\C#N)S(C)(=O)=O
→ -2.0, .
Cc1ccc(C(C)C)cc1S(=O)(=O)NCc1ccc2c(c1)OCO2
→ 2.1, 6
O=c1cc(O)n(-c2ccccc2)c(=S)[nH]1
→ -1.4, 8
Cc1ccc2oc(=O)c3cc(C(=O)N(C)CCC#N)sc3c2c1
→ ., -4
O=C(OCc1ccccc1)c1cc2cc(Br)cc(Br)c2oc1=O
→ -2.5, -5
